rRNA inh HTS – selective bacterial rRNA inhibition in E. coli; E. coli WT GFP vs humanized-ribosome RFP mutants, fluorescence, 24 h; hits give low values; DMSO median 0, no signal -100; GFP signal change (wild-type ribosome), % (test concentration not listed); 350,000 compounds, 1.6% hits;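 active = significant combined selectivity score with lowered wild-type GFP, culture density cut under 30%, mutant RFP and density less affected; inactive = any of these conditions unmet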; also: one replicate is shown; some compounds called inactive have numbers as strong as hits
FGF22 binding – FGF22 (human) thermal shift binding | Q9HCT0 | recombinant FGF22 thermal shift, SYPRO orange fluorescence; percent of sucrose octasulfate shift, DMSO zero | calls only at 9.99 µM | 340,000 compounds, 1.5% hits | AID 651658;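 active = melting point raised past a set limit in the mean and every replicate; three in four hits are not shown here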
Target sequence (Q9HCT0 whole entry, looked up): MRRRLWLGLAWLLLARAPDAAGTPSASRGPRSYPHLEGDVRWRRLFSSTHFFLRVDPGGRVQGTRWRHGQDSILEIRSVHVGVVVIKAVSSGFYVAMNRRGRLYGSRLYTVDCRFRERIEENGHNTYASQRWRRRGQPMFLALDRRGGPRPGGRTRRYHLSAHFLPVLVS
rRNA inh HTS OD600 – also measured in rRNA inh HTS; calls as there; OD600 change, %; measured here: OD600 growth;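 optical density of the mix in the first replicate; 0 = DMSO median and -100 = no signal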
rRNA inh HTS RFP – recorded beside rRNA inh HTS, whose call it bears; RFP signal change, %; measured here: RFP humanized mutant strains;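 first replicate; 0 = DMSO median and -100 = no signal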
* marks the source's active call; other numbers are inactive results. A portion of the library. The share of hits here may be higher or lower than overall.

For C[C@@H]1CN([C@H](C)CO)C(=O)c2ccccc2-c2ccccc2CO[C@@H]1CN(C)S(=O)(=O)c1cccc(F)c1 the results were rRNA inh HTS 0, FGF22 binding inactive, rRNA inh HTS OD600 -6 and rRNA inh HTS RFP 3.1.
CC(C)NC(=O)Nc1ccc2c(c1)C(=O)N([C@H](C)CO)C[C@H](C)[C@@H](CN(C)C(=O)CCCN(C)C)OCCCC[C@H](C)O2 was read as rRNA inh HTS -1, FGF22 binding inactive, rRNA inh HTS OD600 2 and rRNA inh HTS RFP -4.5.
`C[C@H](CO)N1C[C@H](C)[C@H](CN(C)C(=O)CN(C)C)Oc2cc(C#CC(C)(C)O)ccc2S1(=O)=O` gave rRNA inh HTS 3, FGF22 binding inactive, rRNA inh HTS OD600 1 and rRNA inh HTS RFP 0.7.
Screening CN1CCN(C(=O)C[C@@H]2C[C@@H]3c4cc(NC(=O)Nc5ccc(C(F)(F)F)cc5)ccc4O[C@@H]3[C@@H](CO)O2)CC1 returned rRNA inh HTS -14, FGF22 binding inactive, rRNA inh HTS OD600 -50 and rRNA inh HTS RFP 25.
COc1ccc(-c2ccc([C@@H]3[C@H](C#N)N(C(=O)C4CCC4)[C@H]3CO)cc2)cc1 was read as rRNA inh HTS -2, FGF22 binding inactive, rRNA inh HTS OD600 -5 and rRNA inh HTS RFP 0.0.
`COc1ccc(NC(=O)Nc2ccc3c(c2)CC(=O)N([C@H](C)CO)C[C@H](C)[C@H](CN(C)C(=O)NC(C)C)O3)cc1` gave rRNA inh HTS 4, FGF22 binding inactive, rRNA inh HTS OD600 5 and rRNA inh HTS RFP -1.3.
For C[C@H](CO)N1C[C@H](C)[C@@H](CN(C)Cc2ccc(C(=O)Nc3ccccc3N)cc2)Oc2c(NS(=O)(=O)c3ccc(F)cc3)cccc2C1=O the results were rRNA inh HTS 0, FGF22 binding inactive, rRNA inh HTS OD600 10 and rRNA inh HTS RFP 0.8.
Screening COCc1[nH]nc2c1C(c1cccc(C(F)(F)F)c1)N(c1ccccc1)C2=O (stereo not drawn) returned rRNA inh HTS -4, FGF22 binding inactive, rRNA inh HTS OD600 -30 and rRNA inh HTS RFP -4.1.
`C[C@H](CO)N1C[C@H](C)[C@H](CN(C)C(=O)Nc2ccc(F)cc2)Oc2ccc(NS(C)(=O)=O)cc2CC1=O` gave rRNA inh HTS 0, FGF22 binding inactive, rRNA inh HTS OD600 2 and rRNA inh HTS RFP -0.6.
For C[C@@H]1CN([C@@H](C)CO)C(=O)c2cc(NC(=O)NC3CCCCC3)ccc2O[C@@H](C)CCCCO[C@H]1CN(C)C(=O)NC1CCCCC1 the results were rRNA inh HTS 4, FGF22 binding inactive, rRNA inh HTS OD600 1 and rRNA inh HTS RFP -1.8.
Screening CCCNC(=O)C[C@H]1CC[C@H]2[C@@H](COC[C@@H](O)CN2CC2CCCCC2)O1 returned rRNA inh HTS -2, FGF22 binding inactive, rRNA inh HTS OD600 -18 and rRNA inh HTS RFP -0.7.
Screening O=C(N[C@@H]1CC[C@H](CCn2cc(C3CCCCC3)nn2)O[C@H]1CO)c1cccnc1 returned rRNA inh HTS 0, FGF22 binding inactive, rRNA inh HTS OD600 -5 and rRNA inh HTS RFP -3.0.
C[C@H]1CN([C@@H](C)CO)C(=O)c2cc(NC(=O)CCC(F)(F)F)ccc2O[C@H]1CN(C)C(=O)NC1CCCCC1 was read as rRNA inh HTS 2, FGF22 binding inactive, rRNA inh HTS OD600 17 and rRNA inh HTS RFP -3.3.
Screening C[C@H]1CN([C@@H](C)CO)C(=O)c2cc(C#Cc3cccnc3)cnc2O[C@H]1CN(C)C(=O)CN(C)C returned rRNA inh HTS 6, FGF22 binding inactive, rRNA inh HTS OD600 10 and rRNA inh HTS RFP -2.5.
N#Cc1ccc(-c2ccc3c(c2)[C@H]2[C@H](CCN2C(=O)c2ccc(F)cc2)[C@H](CO)N3)cc1 was read as rRNA inh HTS -8, FGF22 binding inactive, rRNA inh HTS OD600 -19 and rRNA inh HTS RFP 8.2.
C[C@H]1CN([C@@H](C)CO)C(=O)c2cc(NS(=O)(=O)c3ccc(F)cc3)ccc2O[C@@H]1CN(C)CC1CC1 was read as rRNA inh HTS 5, FGF22 binding inactive, rRNA inh HTS OD600 4 and rRNA inh HTS RFP -0.3.
`CCNC(=O)C[C@H]1CC[C@H]2[C@@H](COc3ccc(NC(=O)Cc4cccs4)cc3C(=O)N2C)O1` gave rRNA inh HTS 3, FGF22 binding inactive, rRNA inh HTS OD600 0 and rRNA inh HTS RFP -1.9.
For CC(C)NC(=O)Nc1ccc2c(c1)C(=O)N([C@H](C)CO)C[C@@H](C)[C@H](CN(C)S(=O)(=O)c1ccc(Cl)cc1)OCCCC[C@H](C)O2 the results were rRNA inh HTS -1, FGF22 binding inactive, rRNA inh HTS OD600 -1 and rRNA inh HTS RFP 1.7.
`CCCNC(=O)N(C)C[C@@H]1Oc2cc(C#CCN(C)C)ccc2S(=O)(=O)N([C@H](C)CO)C[C@H]1C` gave rRNA inh HTS 3, FGF22 binding inactive, rRNA inh HTS OD600 6 and rRNA inh HTS RFP 1.4.
Screening C[C@H](CO)N1C[C@H](C)[C@H](CN(C)Cc2ccc(Oc3ccccc3)cc2)Oc2ccc(NC(=O)NC3CCCCC3)cc2CC1=O returned rRNA inh HTS 1, FGF22 binding inactive, rRNA inh HTS OD600 6 and rRNA inh HTS RFP -0.1.
For COc1ccccc1-c1cn(CC[C@H]2CC[C@@H](NC(=O)Cc3ccccn3)[C@H](CO)O2)nn1 the results were rRNA inh HTS -2, FGF22 binding inactive, rRNA inh HTS OD600 4 and rRNA inh HTS RFP 2.7.
C[C@@H]1CN([C@H](C)CO)C(=O)c2cc(C3=CCCCC3)cnc2O[C@H]1CN(C)Cc1cccc(F)c1 was read as rRNA inh HTS 5, FGF22 binding inactive, rRNA inh HTS OD600 24 and rRNA inh HTS RFP -2.3.
For CCS(=O)(=O)Nc1ccc2c(c1)C(=O)N(C)[C@H]1CC[C@@H](CC(=O)Nc3ccccc3)O[C@@H]1CO2 the results were rRNA inh HTS 0, FGF22 binding inactive, rRNA inh HTS OD600 3 and rRNA inh HTS RFP -3.5.
For COc1ccc(S(=O)(=O)Nc2ccc3c(c2)CC(=O)N([C@H](C)CO)C[C@@H](C)[C@@H](CN(C)Cc2ccc(C(=O)Nc4ccccc4N)cc2)O3)cc1 the results were rRNA inh HTS -6, FGF22 binding inactive, rRNA inh HTS OD600 -8 and rRNA inh HTS RFP 1.0.
Screening O=C(N[C@@H]1CC[C@H](CCn2cc(C3(O)CCCC3)nn2)O[C@@H]1CO)C1CCCC1 returned rRNA inh HTS 1, FGF22 binding inactive, rRNA inh HTS OD600 7 and rRNA inh HTS RFP 0.6.
For COc1ccc2c3c(n(C)c2c1)[C@H](CO)N(S(C)(=O)=O)CC31CN(C(=O)C2CC2)C1 the results were rRNA inh HTS 7, FGF22 binding inactive, rRNA inh HTS OD600 6 and rRNA inh HTS RFP -2.3.
CC(C)NC(=O)N(C)C[C@H]1Oc2c(NC(=O)CCCCCC(=O)Nc3ccccc3N)cccc2C(=O)N([C@H](C)CO)C[C@H]1C was read as rRNA inh HTS 0, FGF22 binding inactive, rRNA inh HTS OD600 2 and rRNA inh HTS RFP -1.6.
Screening CO[C@H]1CC[C@H]2CCN(C)C(=O)C[C@@H](c3ccccc3)CN(C)C(=O)c3cc(C#N)ccc3OC[C@H]1O2 returned rRNA inh HTS 1, FGF22 binding inactive, rRNA inh HTS OD600 7 and rRNA inh HTS RFP -4.0.
Screening CO[C@@H]1CN(C)C(=O)c2cc(NC(=O)C3CCCCC3)ccc2OC[C@H](C)N(C)C[C@H]1C returned rRNA inh HTS 0, FGF22 binding inactive, rRNA inh HTS OD600 -2 and rRNA inh HTS RFP -2.8.
`CS(=O)(=O)N1CC2(C1)[C@H](c1ccccc1)[C@@H](CO)N2C(=O)c1ccccc1` gave rRNA inh HTS -2, FGF22 binding inactive, rRNA inh HTS OD600 9 and rRNA inh HTS RFP -2.0.
Screening CC=Cc1ccc2n(c1=O)C[C@H]1[C@H](CO)[C@@H](C(=O)NCC3CC3)[C@@H]2N1Cc1ccncc1 (mixture of isomers) returned rRNA inh HTS 3, FGF22 binding inactive, rRNA inh HTS OD600 2 and rRNA inh HTS RFP -2.8.
C[C@H]1CN([C@@H](C)CO)C(=O)CCCn2nncc2CO[C@@H]1CN(C)C(=O)Nc1ccccc1C(F)(F)F was read as rRNA inh HTS -1, FGF22 binding inactive, rRNA inh HTS OD600 3 and rRNA inh HTS RFP 2.7.
`CCC(=O)N1C[C@H](C)[C@@H](OC)CN(C)C(=O)c2cc(NS(=O)(=O)CC)ccc2OC[C@@H]1C` gave rRNA inh HTS 0, FGF22 binding inactive, rRNA inh HTS OD600 -1 and rRNA inh HTS RFP 3.5.
`C[C@@H]1CN([C@@H](C)CO)C(=O)c2cccc(NS(=O)(=O)c3cccs3)c2O[C@@H]1CN(C)Cc1ccc(C(=O)Nc2ccccc2N)cc1` gave rRNA inh HTS 0, FGF22 binding inactive, rRNA inh HTS OD600 -7 and rRNA inh HTS RFP 1.1.
Screening COc1ccc(CN(C)C[C@H]2OCCCC[C@H](C)Oc3ccc(N(C)C)cc3C(=O)N([C@H](C)CO)C[C@H]2C)cc1 returned rRNA inh HTS 1, FGF22 binding inactive, rRNA inh HTS OD600 -1 and rRNA inh HTS RFP -0.5.
`C[C@H](CO)N1C[C@H](C)[C@@H](CN(C)C)Oc2ccc(NC(=O)Nc3cccc4ccccc34)cc2CC1=O` gave rRNA inh HTS -2, FGF22 binding inactive, rRNA inh HTS OD600 -4 and rRNA inh HTS RFP -3.4.
Screening COc1ccc(S(=O)(=O)Nc2cccc3c2O[C@@H](CN(C)CC2CC2)[C@H](C)CN([C@@H](C)CO)C3=O)cc1 returned rRNA inh HTS 4, FGF22 binding inactive, rRNA inh HTS OD600 5 and rRNA inh HTS RFP 0.5.
For Cc1ccc(S(=O)(=O)Nc2ccc3c(c2)C(=O)N([C@H](C)CO)C[C@H](C)[C@@H](CN(C)Cc2ccc(C(F)(F)F)cc2)OCCCC[C@H](C)O3)cc1 the results were rRNA inh HTS -6, FGF22 binding inactive, rRNA inh HTS OD600 -9 and rRNA inh HTS RFP 2.8.
Screening CN(C)C(=O)C[C@H]1CC[C@H]2[C@@H](COc3ccc(NC(=O)c4ccc(F)c(F)c4)cc3C(=O)N2C)O1 returned rRNA inh HTS 0, FGF22 binding inactive, rRNA inh HTS OD600 0 and rRNA inh HTS RFP 2.7.
N#C[C@@H]1[C@H](c2ccccc2)[C@@H](CO)N1C(=O)CCN1CCCCC1 was read as rRNA inh HTS 8, FGF22 binding inactive, rRNA inh HTS OD600 20 and rRNA inh HTS RFP -1.3.
Cc1ccc(S(=O)(=O)N(C)C[C@@H]2OCCCC[C@H](C)Oc3ccc(NC(=O)Nc4cccc5ccccc45)cc3C(=O)N([C@H](C)CO)C[C@@H]2C)cc1 was read as rRNA inh HTS 6, FGF22 binding inactive, rRNA inh HTS OD600 10 and rRNA inh HTS RFP -1.5.
CC(C)NC(=O)Nc1ccc2c(c1)C(=O)N([C@H](C)CO)C[C@H](C)[C@@H](CN(C)Cc1ccccc1)OCCCC[C@H](C)O2 was read as rRNA inh HTS -5, FGF22 binding inactive, rRNA inh HTS OD600 -5 and rRNA inh HTS RFP -3.9.
`Cc1noc(C)c1S(=O)(=O)Nc1ccc2c(c1)CC(=O)N([C@@H](C)CO)C[C@@H](C)[C@H](CN(C)Cc1ccc3c(c1)OCO3)O2` gave rRNA inh HTS -1, FGF22 binding inactive, rRNA inh HTS OD600 2 and rRNA inh HTS RFP 0.6.

Taken from the listing for reference:
CC(C)NC(=O)Nc1ccc2c(c1)C(=O)N([C@H](C)CO)C[C@H](C)[C@@H](CN(C)Cc1ccccc1)OCCCC[C@H](C)O2 was read as rRNA inh HTS -5, FGF22 binding inactive, rRNA inh HTS OD600 -5 and rRNA inh HTS RFP -3.9.
`Cc1noc(C)c1S(=O)(=O)Nc1ccc2c(c1)CC(=O)N([C@@H](C)CO)C[C@@H](C)[C@H](CN(C)Cc1ccc3c(c1)OCO3)O2` gave rRNA inh HTS -1, FGF22 binding inactive, rRNA inh HTS OD600 2 and rRNA inh HTS RFP 0.6.

Quoted at random: six records from the list
N#C[C@@H]1[C@H](c2ccccc2)[C@@H](CO)N1C(=O)CCN1CCCCC1 was read as rRNA inh HTS 8, FGF22 binding inactive, rRNA inh HTS OD600 20 and rRNA inh HTS RFP -1.3.
For Cc1ccc(S(=O)(=O)Nc2ccc3c(c2)C(=O)N([C@H](C)CO)C[C@H](C)[C@@H](CN(C)Cc2ccc(C(F)(F)F)cc2)OCCCC[C@H](C)O3)cc1 the results were rRNA inh HTS -6, FGF22 binding inactive, rRNA inh HTS OD600 -9 and rRNA inh HTS RFP 2.8.
`CCC(=O)N1C[C@H](C)[C@@H](OC)CN(C)C(=O)c2cc(NS(=O)(=O)CC)ccc2OC[C@@H]1C` gave rRNA inh HTS 0, FGF22 binding inactive, rRNA inh HTS OD600 -1 and rRNA inh HTS RFP 3.5.
CC(C)NC(=O)Nc1ccc2c(c1)C(=O)N([C@H](C)CO)C[C@H](C)[C@@H](CN(C)Cc1ccccc1)OCCCC[C@H](C)O2 was read as rRNA inh HTS -5, FGF22 binding inactive, rRNA inh HTS OD600 -5 and rRNA inh HTS RFP -3.9.
`C[C@H](CO)N1C[C@H](C)[C@@H](CN(C)C)Oc2ccc(NC(=O)Nc3cccc4ccccc34)cc2CC1=O` gave rRNA inh HTS -2, FGF22 binding inactive, rRNA inh HTS OD600 -4 and rRNA inh HTS RFP -3.4.
Screening COc1ccc(S(=O)(=O)Nc2cccc3c2O[C@@H](CN(C)CC2CC2)[C@H](C)CN([C@@H](C)CO)C3=O)cc1 returned rRNA inh HTS 4, FGF22 binding inactive, rRNA inh HTS OD600 5 and rRNA inh HTS RFP 0.5.
